Bioassay records from PubChem.
Insulin prom inh – TRM-6 insulin promoter activity inhibition. TRM-6 cells (human fetal islet line), insulin promoter-eGFP reporter, imaging; reporter expression induced with tamoxifen. inhibition, % at 2 µM. 0.9% of 130,000 active. AID 1273;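 active = inhibition above the mean plus 3 SD, with well images judged a real hit on visual review, cut at about 60% in these data, passing the limit was not always enough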
HSV augment – HSV replication enhancement; maximum fold increase; AID 1956; HSV replication augmentation in cells, fold increase; 0.005% of 220,000 active;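 active = peak rise of 1.5-fold or more in the series; tested in PC3 cells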;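 also: first round at 10 µM; read as green reporter fluorescence; hits show the peak of a series up to 25 µM; 1 = signal of infected wells without compound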
GALR2 agonist – activates the human galanin receptor 2; AID 803; 0.48% of 140,000 active; activation, %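 (tested at 5 µM)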; O43603; GALR2-expressing cells, agonist activation read-out;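 active = above mean plus 3 SD of all compounds, about 5% in these data, not always enough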;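 also: 0% = vehicle buffer wells and 100% = reference agonist at full effect; tested in CHO reporter cells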
Target sequence (O43603 whole entry, looked up): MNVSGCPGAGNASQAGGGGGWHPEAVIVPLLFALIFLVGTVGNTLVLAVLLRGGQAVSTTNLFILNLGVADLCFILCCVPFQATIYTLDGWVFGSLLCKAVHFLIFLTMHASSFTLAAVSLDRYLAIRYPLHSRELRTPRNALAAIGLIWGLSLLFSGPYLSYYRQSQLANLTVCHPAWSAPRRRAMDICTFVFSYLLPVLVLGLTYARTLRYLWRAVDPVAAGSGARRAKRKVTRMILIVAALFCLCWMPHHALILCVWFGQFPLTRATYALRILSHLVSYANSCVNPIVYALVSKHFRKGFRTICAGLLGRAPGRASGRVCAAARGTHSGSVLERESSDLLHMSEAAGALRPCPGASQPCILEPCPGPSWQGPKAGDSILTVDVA
RGS16-Gao – modulates binding between human RGS16 and Galphao; bead-based flow cytometry RGS16-Galphao binding, fluorescence; actives lie on both sides; binding response (% of control), % at 10 µM; 0.38% of 220,000 active; AID 1441;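 active = below 25% or above 175%, edge rows of some plates excepted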;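 also: Galphao activated by GDP with aluminum fluoride before binding; 100% = wells without compound and 0% = beads without RGS; some results beyond the cut were filed as inactive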
Target sequence (O15492 whole entry, looked up): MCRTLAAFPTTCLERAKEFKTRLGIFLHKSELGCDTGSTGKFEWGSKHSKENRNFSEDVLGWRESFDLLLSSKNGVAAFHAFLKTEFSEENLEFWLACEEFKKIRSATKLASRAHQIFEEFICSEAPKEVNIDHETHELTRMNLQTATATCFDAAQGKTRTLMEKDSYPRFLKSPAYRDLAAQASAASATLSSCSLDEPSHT
Target sequence (P09471 whole entry, looked up): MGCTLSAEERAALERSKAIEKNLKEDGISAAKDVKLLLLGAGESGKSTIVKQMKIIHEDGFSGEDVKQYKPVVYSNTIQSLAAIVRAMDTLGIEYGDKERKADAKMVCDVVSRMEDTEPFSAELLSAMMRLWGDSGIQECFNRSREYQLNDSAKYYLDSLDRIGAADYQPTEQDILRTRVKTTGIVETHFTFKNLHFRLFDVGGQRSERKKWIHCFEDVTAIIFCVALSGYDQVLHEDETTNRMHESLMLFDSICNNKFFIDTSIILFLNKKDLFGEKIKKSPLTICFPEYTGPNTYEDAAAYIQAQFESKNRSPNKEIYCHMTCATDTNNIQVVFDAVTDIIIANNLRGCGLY
PKD1 kinase inh – PKD1 (human) kinase inhibition | Q15139 | PKD1 kinase fluorescence polarization assay | inhibition, %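 (about 10 µM by stock and volumes)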 | 0.056% of 200,000 active;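 active = inhibition of 50% or more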;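 also: controls were vehicle for no effect and a reference inhibitor for full effect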
Insulin prom inh cell count – second read-out of Insulin prom inh, no call of its own (marks repeat the call); normalized cell count, %; measured here: cell count, toxicity; reference of the scale not given here;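 cells exposed to compound for 48 h; stained nuclei by imaging scaled within each plate; lower means fewer cells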
HSV augment primary fold – further read-out of HSV augment, marked with its call; fold increase; compound at 10 µM; measured here: primary screen fold increase 10 uM; tested in PC3 cells;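 GFP signal in the first replicate; 1 = infected wells without compound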
* marks the source's active call; other numbers are inactive results; i = inactive; / = no result given.

SMILES	Insulin prom inh	Insulin prom inh cell count	HSV augment	HSV augment primary fold	GALR2 agonist	RGS16-Gao	PKD1 kinase inh
CC(=O)NC1C(Oc2ccccc2C)OC2COC(c3ccco3)OC2C1O (stereo not given)	/	/	i	0.94	-1.0	113	-9
O=C(O)C1CCC(CNCc2ccccc2Cl)CC1 (stereo not given)	/	/	i	1	-0.4	105	-9
Cc1nn(-c2ccccc2)nc1C(=O)NN	/	/	i	1.1	/	98	/
CCN(CC)CCCN1C(=O)C(O)=C(C(=O)c2ccc(C)o2)C1c1ccc(C)o1 (stereo not given)	/	/	i	1.2	-0.7	113	-17
Cc1cc(N2CCOCC2)n2ncc(-c3ccccc3)c2n1	53	150	i	0.83	-1.1	104	2
C=C(C)CSc1nc(N)c(C#N)c(-c2ccc(C)cc2)c1C#N	-5	154	/	/	-0.4	106	0
Oc1c(Cl)cc(Cl)cc1/C=N/Nc1ncc(Br)cn1	-100	87	i	0.98	/	108	-6
COC(=O)c1ccccc1NC(=O)Cc1nc(-c2ccccc2)sc1-c1ccc(C)cc1	0	110	i	1.2	0.1	104	-12
Cc1cccc(N2CCN(C(=O)n3ccnc3)CC2)c1C	/	/	i	0.89	-1.8	140	-4
CC(C)(C)NC(=O)CN(C(=O)c1ccc(CN2CCOCC2)o1)c1ccc2c(c1)OCCO2	/	/	i	0.83	-0.7	101	-7
COc1ccc(-n2nnnc2SCc2nc3ccccc3s2)cc1	22	135	i	0.97	-2.1	106	-1
COc1ccc(C(=O)NC2=Nc3ccccc3N=C(C)C2c2ccccc2)cc1 (stereo not given)	/	/	i	1.1	/	97	/
C=CCOc1c(CNc2ncn[nH]2)cccc1OC	3	114	i	1	-2.5	102	4
CC1CN(C(=S)NC(=O)c2ccco2)CC(C)O1 (stereo not given)	3	116	i	0.89	-1.7	107	-16
O=C(Nc1ccccc1OC(F)F)c1cc2c(s1)CCC2	/	/	i	1.1	1.1	92	0
O=C(Cn1cnc2ccccc21)N1CCc2ccccc21	45	74	i	0.98	/	100	-1
Cc1ccc2nc(C)cc(C(=O)Nc3nccs3)c2c1	28	148	i	1.1	/	99	-3
CCOC(=O)c1c(-c2cccc(C)c2)csc1NC(=O)C1CC=CCC1C(=O)O (stereo not given)	-26	115	i	0.85	0.4	97	-5
N#Cc1ccc(-c2csc(NC(=O)c3ccc(N4C(=O)CCC4=O)cc3)n2)cc1	/	/	i	1.1	/	101	/
O=C(NCCCn1ccnc1)C(=O)c1cn(CC(=O)N2CCCCCC2)c2ccccc12	-146	100	/	/	/	113	-2
COc1cc(C)nc(SCC(N)=O)n1	5	124	i	1	1.6	110	-5
O=C(NCc1ccco1)/C(=C/c1ccc(C(F)(F)F)cc1)c1nc2ccccc2[nH]1	30	99	i	1.1	1.4	104	-10
Cc1ccc(N2C(=O)CC(N3CCSCC3)C2=O)c(C)c1 (stereo not given)	/	/	i	1.2	/	102	/
CCC/C(=N\NC(=O)c1cccc(C)c1)c1ccccc1	0	80	i	1	-1.1	111	-8
CC1CCCCC12NC(=O)N(CC(=O)NC1CCCc3ccccc31)C2=O (stereo not given)	/	/	i	1.1	-0.1	101	-9
CCN(CC)CC(=O)Nc1cc(N(C)C)nc2ccccc12	/	/	i	1.3	/	103	/
C=CCC1c2cccc(C(=O)O)c2C(=O)N1c1cccc(OC)c1 (stereo not given)	/	/	i	0.94	/	100	3
Cc1cc(C)nc(SCCC(=O)Nc2cccc3ccccc23)n1	/	/	i	0.99	-1.4	96	3
Cc1cc(C)c(NC(=O)NC2CCCCC2)c(C)c1	-43	84	i	0.95	-3.5	105	-13
O=C(NCCN1CCN(C(=O)c2cccs2)CC1)C(=O)Nc1ccc(Br)cc1	13	133	i	0.95	-2.9	102	-9
Cc1nc2ccccn2c1C(=O)N=Nc1c(O)[nH]c2ccccc12	6	113	i	0.91	0.1	101	5
Cc1cc(C(=O)NNc2cc(Cl)ccc2Cl)no1	/	/	i	0.96	/	98	/
CCCCc1sc(-c2c(C#N)c(N)nc3c2CCCCC3)cc1[N+](=O)[O-]	/	/	i	1.1	-2.1	107	12
COc1ccc2cc(S(=O)(=O)NCCCN3CCOCC3)ccc2c1	2	107	i	0.91	-2.0	138	-3
COc1ccc(OCCCC(=O)NCCc2nc3ccccc3[nH]2)cc1	-53	108	i	0.87	/	98	3
O=C(NC(NCc1ccccn1)(C(F)(F)F)C(F)(F)F)c1ccco1	/	/	i	1.1	0.4	110	4
COc1ccc(NC(=O)C2CCCCN2N)cc1OCC(C)C (stereo not given)	/	/	i	0.7	-0.2	90	1
CC(=O)Nc1nnc(SCC(=O)Nc2ccc(N3CCOCC3)c(Cl)c2)s1	/	/	i	0.94	/	95	/
CC1=CC(C)(C)N(C(=O)CCl)c2ccccc21	/	/	i	0.84	/	100	-5
Cc1cc(=O)[nH]c(N/N=C/c2c[nH]c3ccccc23)n1	/	/	i	1.1	/	109	/
CCCc1c(O)nc(SCC(=O)NCCc2ccc(OC)c(OC)c2)[nH]c1=O	9	171	i	0.82	-1.1	100	-5
COC(=O)COc1cccc(NS(=O)(=O)c2cccc([N+](=O)[O-])c2)c1	/	/	i	0.89	/	98	-4
O=C(O)CCC(=O)N1CCN(c2nc(-c3ccccc3Cl)c3cc(Br)ccc3n2)CC1	25	65	i	0.89	9.6	98	1
CCN(CC)C(=O)CSc1ncccc1-c1nc2ccccc2[nH]1	/	/	i	0.96	/	108	-3
NC(=O)C1CCN(CC(=O)Nc2ccccn2)CC1	18	85	i	0.98	-2.0	101	5
Nc1c(Cl)cc2c(c1Oc1ccccc1)C(=O)c1ccccc1C2=O	-7	119	i	0.98	-2.3	105	-3
O=C1C2C3CCCC3=C3CCCC3C2C(=O)N1c1ccc(F)cc1 (stereo not given)	/	/	i	0.98	-0.1	-157	1
O=c1[nH]c(CN2CCN(S(=O)(=O)c3ccc4ccccc4c3)CC2)nc2ccccc12	35	143	i	0.9	/	107	2
N/C(=N\OC(=O)c1ccc(=O)n(Cc2ccc(Cl)cc2)c1)c1ccccn1	57	146	i	0.84	/	106	-14
CC1CCN(C(=O)CSc2nc3ccccc3c(=O)[nH]2)CC1	14	110	i	0.95	/	109	-4
O=C(Nc1nnc(-c2ccccc2)o1)c1nc2ccccc2s1	/	/	i	0.96	/	105	/
CCOC(=O)c1c(C)nc2c3ccccc3ccn12	62	107	i	0.81	-2.6	86	2
O=S(=O)(c1ccccc1)c1nc(-c2ccccc2)oc1N1CCCC1	-15	111	i	0.88	/	98	-1
C=CCN1C2CCCC1CC(NC(=O)Nc1cccc(C(C)=O)c1)C2 (stereo not given)	/	/	i	1.1	-1.3	102	-10
O=C(/C=C/c1cccc(Cl)c1)NCc1ccncc1	36	113	i	1	-1.0	104	-2
COc1ccc(C(CNC(=O)c2cccc(N(C)C)c2)N2CCCC2)cc1 (stereo not given)	3	106	i	1	-2.2	93	-3
O=C(O)C12CC3CC(C1)CC(n1ncc(N4CCN(c5ccccc5)CC4)c(Cl)c1=O)(C3)C2	2	96	i	1.1	0.8	150	6
COc1ccc(C2=CC(=O)OC3(CCCCC3)O2)cc1	-20	119	i	0.94	0.5	100	5
O=C(COC(=O)C1CCN(S(=O)(=O)c2cccs2)CC1)Nc1ccccc1	/	/	i	0.92	/	102	-6
Cc1c(Br)c(C(=O)NNC(=O)c2ccc(C(C)(C)C)cc2)nn1C	/	/	i	0.78	/	116	/
Following part
SMILES	Insulin prom inh	Insulin prom inh cell count	HSV augment	HSV augment primary fold	GALR2 agonist	RGS16-Gao	PKD1 kinase inh
COc1ccc2c(c1)[nH]c1c(N3CCSCC3)ncnc12	/	/	i	0.57	/	99	/
COC(=O)CNC(=O)C(Cc1ccccc1)NS(=O)(=O)c1ccc2c(c1)c(=O)n(C)c(=O)n2C (stereo not given)	/	/	i	1	/	100	-2
O=C(COC(=O)c1ccc(Cl)nc1)Nc1cc(S(=O)(=O)N2CCCCC2)ccc1Cl	/	/	i	0.94	/	99	-5
CC(=O)Nc1ccc(C(=O)OCCC(C)C)cc1	/	/	i	0.83	-0.4	112	2
CCOC(=O)C1=C(C)NC(C)=C(C(=O)OCC)C1C(=O)OCC(N)=O	/	/	i	1	/	103	-8
Oc1ccccc1-c1cc(-c2ccccc2)no1	/	/	i	0.89	0.6	102	-13
CC(C)Cc1nc(N2CCCCC2)c(C#N)c2c1CCC2	7	114	i	0.99	-3.0	99	-2
CC(=O)Nc1ccc(S(=O)(=O)Nc2cc([N+](=O)[O-])ccc2C)cc1	-50	61	i	0.89	/	103	-2
CC(NC(=O)c1ccco1)c1cccc2ccccc12 (stereo not given)	-77	186	i	0.95	-1.4	55	3
Cc1ccsc1C(=O)NNC(=O)C1CC=CCC1C(=O)O (stereo not given)	/	/	i	1	0.0	51	2
CCOC(=O)c1cc(-c2ccccc2)n(CC(=O)Nc2cc(OC)cc(OC)c2)c1C	12	119	i	0.98	-0.3	100	-9
CN(C)CCCN(C(=O)CCc1ccccc1)c1nc2ccc(Cl)cc2s1	/	/	i	0.67	2.8	103	-10
CN1COc2ccc3ccccc3c2C1	38	55	i	0.95	/	101	2
CCN(C(=O)CSc1ncccc1C(=O)OC(C)C)c1cccc(C)c1	-38	116	i	1.1	-2.1	67	-9
O=C(Nc1ccc(NC(=O)c2ccncc2)cc1)c1ccncc1	/	/	i	0.94	/	96	/
CN1CCN(C(=O)C2=C[C@@H](C3CC3)C[C@@H](OCc3ccc(CO)cc3)O2)CC1	/	/	i	0.87	/	97	8
C=CCn1c(N)cc(=O)nc1SCC(=O)Nc1cccc2ccccc12	22	140	i	1.1	-0.1	92	-13
COc1ccc(CC(=O)N2CCOCC2)cc1OC	6	170	i	0.89	-0.4	97	-3
O=C(CSc1ccccc1)Nc1ccc(N2CCOCC2)cc1	19	113	i	0.98	-0.7	102	2
C(=C\c1ccccc1)/CSc1nnc(-c2cccnc2)n1Cc1ccco1	/	/	i	0.85	0.6	95	-4
O=S(=O)(c1ccc(OCC(O)CN2CCN(c3ccccc3O)CC2)cc1)N1CCOCC1 (stereo not given)	/	/	i	1.1	-1.4	105	-4
CCNCCNC(=O)c1c(O)c2ccccc2n(CC)c1=O	/	/	i	0.75	-1.1	101	0
CCN=c1scc(-c2ccc(F)cc2)n1/N=C/c1ccccn1	67	52	i	0.85	/	112	3
COc1ccc(CCN2C(=NC(=O)CC(C)C)SC3CS(=O)(=O)CC32)cc1 (stereo not given)	-8	145	i	0.96	-0.6	100	4
O=C(COC(=O)/C=C/c1ccccc1Cl)NCCc1ccc(Cl)cc1Cl	/	/	i	1.2	-1.2	101	-6
CCOC(=O)C1CCN(c2c(NCCN3CCN(c4ccccc4)CC3)c(=O)c2=O)CC1	/	/	i	0.84	-1.4	106	1
CCCCC(O)(CCCC)C(=O)NNc1ccccc1	-14	103	i	1	-2.6	88	-5
O=C1Nc2ccccc2/C1=C/c1cccnc1	-133	104	i	0.53	/	101	3
CCCCNC(=O)c1ccc2c(c1)N(CC)C(=O)c1ccccc1S2(=O)=O	/	/	i	0.95	-0.7	106	-1
CC1(C)CC(=O)C(Br)=C(O)C1	/	/	i	0.94	/	106	-5
OC(c1cccs1)(c1cccs1)C1C[N+]2(CF)CCC1CC2 (stereo not given)	11	175	/	/	-1.6	56	-5
CCOc1ccc(C(=O)Nc2ccc(Cl)cn2)cc1Cl	/	/	i	0.89	-0.3	104	-18
COC(=O)[C@@H]1C[C@@]2(O)[C@H](O)[C@H](O)[C@H](O)C[C@H]2N1CC(c1ccccc1)c1ccccc1	/	/	i	0.91	/	89	/

Some entries already given, showing only PKD1 kinase inh.
structure	PKD1 kinase inh
CCOC(=O)C1CCN(c2c(NCCN3CCN(c4ccccc4)CC3)c(=O)c2=O)CC1	1
CCCCC(O)(CCCC)C(=O)NNc1ccccc1	-5
O=C1Nc2ccccc2/C1=C/c1cccnc1	3
CCCCNC(=O)c1ccc2c(c1)N(CC)C(=O)c1ccccc1S2(=O)=O	-1
CC1(C)CC(=O)C(Br)=C(O)C1	-5

In the list so far, these have a cyano group.
SMILES	Insulin prom inh	Insulin prom inh cell count	HSV augment	HSV augment primary fold	GALR2 agonist	RGS16-Gao	PKD1 kinase inh
C=C(C)CSc1nc(N)c(C#N)c(-c2ccc(C)cc2)c1C#N	-5	154	/	/	-0.4	106	0
N#Cc1ccc(-c2csc(NC(=O)c3ccc(N4C(=O)CCC4=O)cc3)n2)cc1	/	/	i	1.1	/	101	/
CCCCc1sc(-c2c(C#N)c(N)nc3c2CCCCC3)cc1[N+](=O)[O-]	/	/	i	1.1	-2.1	107	12
CC(C)Cc1nc(N2CCCCC2)c(C#N)c2c1CCC2	7	114	i	0.99	-3.0	99	-2
